# Tg IFNy HTS = inhibitors of Toxoplasma gondii growth with IFN-gamma; activity change, negative = inhibition, %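 (about 20 µM by stock and volumes)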; Toxoplasma gondii growth in IFN-gamma-treated host cells; stronger effect = lower value; reference of the scale not given here; 69,000 tested, 3.8% active;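 active means below -70%; inconclusive means fit judged invalid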;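 further: host cells are HeLa cells infected with Toxoplasma gondii; parasite growth read as luciferase light; one replicate is shown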
# * = called active by the depositor; i = inactive; u = inconclusive; & = joins results of further samples. This is a subset. The share of hits here may be higher or lower than overall.
item	SMILES	Tg IFNy HTS
1	CCn1cncc1C(=O)Nc1nc(-c2ccc(OC)c(OC)c2)cs1	-19
2	CCOc1cccc(-c2noc(-c3c(O)c4ccccc4[nH]c3=O)n2)c1	-55
3	CCc1cc2c(=O)c(-c3ccc4c(c3)OCCO4)coc2c(CN2CCCCC2C)c1O (stereo not drawn)	66
4	CCc1ccccc1NC(=O)CN1CCC2(CC1)N=C(c1ccc(F)cc1)C(=O)N2	41
5	CC1=C(C(=O)NCc2ccc3c(c2)OCO3)C2(CCN(S(C)(=O)=O)CC2)OC1=O	20
6	O=C(NCC(c1cccnc1)c1c[nH]c2ccccc12)Nc1ccccc1C(F)(F)F (stereo not drawn)	114
7	CN1C[C@H](NC(=O)c2cccc(-n3cnnc3)c2)C[C@H]1CO	0
8	Cc1ccc(Nc2nc(C(=O)Nc3ccc(Cl)cc3)nc3ccccc23)cc1	44
9	CCOC(=O)c1nc(NCc2cccc(Cl)c2)c2ccccc2n1	-27
10	c1ccc(-c2ccc(CN3CCCn4cncc4C3)cc2)nc1	14
11	COc1ccc(Cc2cnc(NC(=O)Cc3nc4nc(C)cc(=O)n4[nH]3)s2)cc1	-25
12	Cn1c(=O)c(-c2nc(-c3ccc(F)cc3)no2)c(O)c2ccccc21	-39
13	C=CCOCc1cncc2c1CCN(C(=O)N(C)C)C2	i
14	O=C(Nc1cccc(NC(=O)C(F)(F)F)n1)C(F)(F)F	13
15	CNC(=O)Nc1ccc2nc(C)sc2c1	14
16	CNC(=O)COC1COC2(CCN(c3ccc(C)nn3)CC2)C1 (stereo not drawn)	-10
17	O=C(O)c1cc(=O)c2ccc(Cl)cc2[nH]1	24&8
18	CS(=O)(=O)N1CCc2ncc(CNC(=O)CC3CC3)n2CC1	-20
19	Cc1noc(C)c1NC(=O)Nc1ccc2c(c1)C(=O)N(C)[C@@H]1CC[C@H](CC(=O)N[C@H]3CCN(Cc4ccccc4)C3)O[C@@H]1CO2	-4
20	Cc1ccc(C(=O)N2CC[C@@H]3OCC[C@]3(c3nnc(C)o3)C2)o1	-5
21	CS(=O)(=O)c1ccc2nc(N)sc2c1	39
22	COCCn1c2c(ccc1=O)CC(NCc1ccc(F)cc1)CC2 (stereo not drawn)	-7
23	O=C1OCCN1CCNC1CCC2(CCNCC2)CC1	-1
24	CCOC(=O)c1nc(NCc2ccc(Cl)cc2)c2ccccc2n1	-27
25	CCCCc1ccc(Nc2ncnc3c2cnn3-c2ccc(C)cc2C)cc1	-55
26	Cc1cc(C)n(Cc2nc(-c3ccc(NC(=O)Cc4ccc(Cl)cc4)cc3)oc2C)n1	-44
27	CCCn1ncc(C(=O)N2CCC(CO)(Cc3ccccc3Cl)CC2)c1C	3
28	C=CCOCC1CN(C(=O)CC2C=CCC2)Cc2nnn(C)c21 (stereo not drawn)	1
29	OCCOCc1ncn2c1CN(Cc1ccncc1)CCC2	35
30	O=C(NCCc1csc(-c2cccc(F)c2)n1)C12CC3CC(CC(C3)C1)C2	-53
31	Nc1cc(C(F)(F)F)c(-c2cc(N3CCOCC3)nc(N3CCOCC3)n2)cn1	-75*
32	CCC(=O)N1C[C@H](O)COC[C@@H]2O[C@H](CC(=O)NCc3ccc(Oc4ccccc4)cc3)CC[C@H]21	7
33	O=C(COC(=O)c1n[nH]c(=O)c2ccccc12)c1ccc(Cl)cc1	2
34	C[C@@H]1CCCCO[C@@H](CN(C)C(=O)CCC(F)(F)F)[C@@H](C)CN([C@@H](C)CO)C(=O)c2cc(NC(=O)C3CCCCC3)ccc2O1	45
35	N#Cc1cnc(N2CCCCC2)nc1N	65
36	C[C@@H]1CN([C@H](C)CO)C(=O)Cc2cc(NC(=O)c3ccncc3)ccc2O[C@H]1CN(C)C(=O)Nc1ccc(F)cc1	25
37	COc1cccc(NC(=O)N[C@@H]2C=C[C@H](CC(=O)NCc3ccncn3)O[C@H]2CO)c1	1
38	O=C1CCC(NC(=O)OCc2ccccc2)(C(=O)O)O1 (stereo not drawn)	6
39	Cc1ccccc1S(=O)(=O)N1[C@H](C#N)[C@@H](c2ccccc2-c2cccc(F)c2)[C@@H]1CO	-9
40	COCCC(=O)N1CCn2cc(CN3CCCC3)nc2C1	-3
41	N#C[C@@H]1[C@H](c2ccc(C3=CCCCC3)cc2)[C@H](CO)N1C(=O)Nc1ccccc1F	0
42	C[C@@H]1CN([C@@H](C)CO)C(=O)c2cccc(NC(=O)Nc3ccc4c(c3)OCO4)c2O[C@H]1CN(C)S(C)(=O)=O	9
43	O=C(c1ccccc1)N1CCS(=O)(=O)[C@H]2CCNCC[C@@H]21	0
44	COC(=O)c1c(NCc2ccc(OC)c(OC)c2)c2cccc(Cl)c2[nH]c1=O	-50
45	O=C(O)c1ccc(-c2c(N3CCCC3)cn[nH]c2=O)s1	-59
46	CCOc1ccc(-c2nc(CN3CCN(C(=O)Nc4cccc(OC)c4)CC3)c(C)o2)cc1	1
47	CCc1cnc(N2CCC3(CCC(=O)N3Cc3ccccc3)CC2)nc1	-4
48	C/C=C/c1ccc([C@H]2[C@@H](CO)N(CCC(F)(F)F)C23CN(C(=O)CC2CC2)C3)cc1	-60
49	Cc1ccc(S(=O)(=O)N2C[C@H]3C[C@H](NC(=O)c4cc(C)c(C)s4)[C@H]3C2)cc1	-28
50	C[C@@H]1CN([C@@H](C)CO)C(=O)c2cc(NC(=O)Nc3cccc4ccccc34)ccc2O[C@@H](C)CCCCO[C@@H]1CN(C)S(=O)(=O)c1cn(C)cn1	i
51	COc1ccc2c(c1)NC1(CCN(S(=O)(=O)c3ccc4c(c3)CCCC4)CC1)c1cccn1-2	8
52	O=C(O)c1cc2n(n1)CCCN(C(=O)CCc1c[nH]c3ccccc13)C2	-47
53	Cc1ccccc1C1CCCN1C(=O)Cn1nc(C(F)(F)F)cc1C (stereo not drawn)	165
54	COC(=O)c1[nH]ncc1CN1CCN(Cc2cccc(F)c2)CC1	0
55	O=C(c1ccc(Br)cc1)N1CCc2c([nH]c3ccccc23)C1c1ccc(F)cc1 (stereo not drawn)	-94*
56	O=C(Nc1ccccc1)N1CCC2(CC1)CN(Cc1cccnc1)CC21CCNC1=O (stereo not drawn)	0
57	O=C(COC(=O)c1ccncc1)c1ccc(OC(=O)c2ccco2)cc1	13
58	CC(C)(C)c1ccc(NC(=S)NCCc2ccncc2)cc1	-12
59	COc1cc(C(=O)NCCc2nc(C)ncc2-c2ccncc2)cc(OC)c1OC	28
60	C[C@H]1CN([C@@H](C)CO)C(=O)c2cc(NS(=O)(=O)c3cccs3)ccc2O[C@@H]1CN(C)S(=O)(=O)c1ccc(Cl)cc1	4

# Next section:
item	SMILES	Tg IFNy HTS
61	COc1ccc(CCNC(=O)N2CCCCC2CN2CCOCC2)cc1 (stereo not drawn)	1
62	O=C(Nc1ccc(F)cc1F)c1c(O)c2cccnc2n(-c2ccccc2)c1=O	-44
63	CCc1cccc(NC(=O)CCC(=O)N(C)C(C)c2nccs2)c1 (stereo not drawn)	-25
64	C[C@@H]1CN([C@@H](C)CO)C(=O)c2cc(C3=CCCCC3)cnc2O[C@H]1CN(C)S(=O)(=O)c1cn(C)cn1	257
65	CCN(CC)Cn1nc(-c2ccccc2Cl)oc1=S	19
66	COCC(=O)N1CCC2(CC1)CN(Cc1nccs1)CCO2	-45
67	CCc1cc(C(=O)N2CCCC2c2ccc(OC)cc2OC)no1 (stereo not drawn)	2
68	COc1ccc(-c2nc(Cn3nnc(C(=O)Nc4cc(F)ccc4C)c3C)c(C)o2)c(OC)c1	114
69	CCCC#Cc1cnc2c(c1)C(=O)N([C@H](C)CO)C[C@@H](C)[C@H](CN(C)C(=O)Nc1cc(F)ccc1F)O2	-64
70	O=C(c1ccc(F)cc1)N1CCc2c([nH]c3ccccc23)C1c1ccc(Cl)cc1 (stereo not drawn)	u
71	COc1ccc(-c2cc3c(=O)n(Cc4nc(-c5cccc(OC)c5OC)oc4C)ccn3n2)cc1	-47
72	CCOC(=O)C1CCN(C2CCN(c3cccc(NS(=O)(=O)c4ccc(F)cc4)c3)CC2)CC1	0
73	CC1CCN(S(=O)(=O)c2ccc3c(c2)CCC(=O)N3CC(=O)Nc2ccccc2F)CC1	23
74	CCOC(=O)C1C(=O)C(=O)N(C)C1c1ccccc1 (stereo not drawn)	-27
75	CN(C)CCO[C@@H]1C[C@@H]2CN(C(=O)c3cccn3C)CCN2C1	4
76	CCCNC(=O)Nc1ccc2c(c1)OC[C@@H](C)N(C(=O)C1CCOCC1)C[C@H](C)[C@@H](OC)CN(C)C2=O	103
77	Cc1ccc(NC(=O)C(=O)NCCc2sc(-c3cccc(F)c3)nc2C)cc1F	51
78	CCOC(=O)c1nc(NCc2ccccc2Cl)c2ccccc2n1	68
79	Cc1cccc(NC(=O)CC(=O)NCc2cc(C(C)C)on2)c1C	-2
80	CCn1c(C2CCCN(Cc3ccc(-c4ccn[nH]4)s3)C2)nn(C)c1=O (stereo not drawn)	1
81	Cc1ccc(S(=O)(=O)N2CCCN(S(=O)(=O)c3ccc4ccccc4c3)CC2)cc1	-25
82	CO[C@H](CN(C)Cc1cc(F)ccc1F)[C@@H](C)CN([C@@H](C)CO)S(=O)(=O)c1ccc(C)cc1	38
83	Cc1ccc(C(=O)Nc2ccc(O)cc2C(=O)O)cc1C	-3
84	Cc1nsc(NC(=O)N2CCCC(c3nc(C(C)C)no3)C2)n1 (stereo not drawn)	4
85	O=C(Nc1nc2c(-c3ccccc3)c(C(F)(F)F)sc2s1)c1ccc(Cl)cc1	-19
86	O=C(NC[C@@H]1[C@H](c2ccccc2)[C@@H](CO)N1Cc1cccnc1)c1ccccn1	6
87	CC1CN(c2ncc(C(=O)OCc3ccccc3)c(C(F)(F)F)n2)CC(C)O1 (stereo not drawn)	-116*
88	CCOc1ccc(CC(=O)NCCc2csc(-c3ccc(Cl)cc3)n2)cc1	23
89	COc1cccc(S(=O)(=O)N2C[C@@H](O)COC[C@H]3O[C@H](CC(=O)NCCCN4CCOCC4)CC[C@@H]32)c1	-35
90	COCCCNC(=O)c1cc2c(c3ccccc3n2CC2CC2)n1-c1ncccn1	-7
91	CCn1cc(C(=O)Nc2ccc(-n3cnnn3)c(OC)c2)c(=O)c2ccc(C)nc21	-40
92	CCOc1ccc(-c2nc(Cn3ccn4nc(-c5ccc6c(c5)OCO6)cc4c3=O)c(C)o2)cc1OC	54
93	Nc1nc2c(ncn2CCC(CO)CO)c(=O)[nH]1	13
94	COc1ccc(-c2nnc(-c3nc(NCc4ccc(OC)cc4OC)c4ccccc4n3)o2)cc1	161
95	CC/C=C/CC(=O)Nc1cccc(NC(=O)Cc2ccccc2)c1	-12
96	COC(=O)CC(=O)CCn1nc(C)nc1C	-25

# Grouped by structure: the compounds so far containing a CF3 group (8)
item	SMILES	Tg IFNy HTS
6	O=C(NCC(c1cccnc1)c1c[nH]c2ccccc12)Nc1ccccc1C(F)(F)F (stereo not drawn)	114
14	O=C(Nc1cccc(NC(=O)C(F)(F)F)n1)C(F)(F)F	13
31	Nc1cc(C(F)(F)F)c(-c2cc(N3CCOCC3)nc(N3CCOCC3)n2)cn1	-75*
34	C[C@@H]1CCCCO[C@@H](CN(C)C(=O)CCC(F)(F)F)[C@@H](C)CN([C@@H](C)CO)C(=O)c2cc(NC(=O)C3CCCCC3)ccc2O1	45
48	C/C=C/c1ccc([C@H]2[C@@H](CO)N(CCC(F)(F)F)C23CN(C(=O)CC2CC2)C3)cc1	-60
53	Cc1ccccc1C1CCCN1C(=O)Cn1nc(C(F)(F)F)cc1C (stereo not drawn)	165
85	O=C(Nc1nc2c(-c3ccccc3)c(C(F)(F)F)sc2s1)c1ccc(Cl)cc1	-19
87	CC1CN(c2ncc(C(=O)OCc3ccccc3)c(C(F)(F)F)n2)CC(C)O1 (stereo not drawn)	-116*

# (cont.)
item	SMILES	Tg IFNy HTS
97	O=C(NCC[C@H]1CC[C@@H](NS(=O)(=O)Cc2ccccc2)[C@@H](CO)O1)C1CCCCC1	-41
98	Cc1nc2ccccn2c1CN(C)Cc1cnn(-c2ccccc2)c1	-53
99	O=C1C[C@H]2CC[C@@H](CN1)N2C(=O)COc1ccc2c(c1)OCO2	2
100	CN(C)N1C(=O)CC(NCc2ccccc2)C1=O (stereo not drawn)	89
101	O=S(=O)(NCc1ccccc1)N1CCC(OCc2cccnc2)CC1	1
102	COc1cccc(-c2nc3c(s2)CN(C(=O)Nc2ccc(C)c(F)c2)CC3)c1	-90*
103	Cc1ccc2c(c1)C(O)(C1COC(C)(C)CC1=O)C(=O)N2C (stereo not drawn)	3
104	N=C1SC2CS(=O)(=O)CC2N1c1ccccc1 (stereo not drawn)	-49
105	O=C1CC(CSc2ccccn2)=NN1	40
106	CN(C)c1ncc(-c2cccc(C(N)=O)c2)c(C2CCNC2)n1 (stereo not drawn)	-14
107	Cc1ccc(NC(=O)CC(=O)N2CCN(Cc3ccc4c(c3)OCO4)C(=O)C2)cc1	-52
108	Cc1nnc(SCC(=O)N2CCCN(C)C3(CCN(C)CC3)C2)s1	-1
109	Cc1ccc(NC(=O)c2nnn(Cc3nc(-c4cccc(Cl)c4)oc3C)c2C)c(Br)c1	134
110	CCCCCc1ccc(-c2ccc(Br)cc2)nc1	402
111	CCc1nc2ccccc2n1CC(=O)NCCc1nc(C(C)(C)C)cs1	5
112	CCNC(=O)c1nc2c(s1)CCCN2c1ccccc1	-3
113	CN1CCN(C(=O)C[C@@H]2CC[C@@H]3[C@H](COc4ccc(NC(=O)C5CCOCC5)cc4C(=O)N3C)O2)CC1	5
114	C/C=C/c1ccc([C@H]2[C@@H](CO)N3C(=O)CN(C(=O)Nc4cccc(OC)c4)C[C@@H]23)cc1	-4
115	O=C(c1ccncc1)N1CC[C@](O)(c2ccccc2)[C@H](N2CCCC2)C1	100
116	CN(C)C1CCN(C(=O)c2ccsc2)C(C)(C(=O)O)C1 (stereo not drawn)	1
117	O=C(c1ccc(-c2cccc3c2OCC3)nc1)N1CCCN(c2ncccn2)CC1	-20
118	O=C(NC1CCCOC1)c1ccc(-n2cnnc2)cc1Cl (stereo not drawn)	26
119	c1cc(-c2nccn2CCCn2ccnc2)ccn1	-2
120	Cc1[nH]c(=O)[nH]c(=O)c1CC(=O)N1CCc2ncc(Cl)cc2C1	90
121	Cc1ccc(S(=O)(=O)Nn2c(C)nnc2-n2nc(C)cc2C)cc1	2
122	C[C@@H]1CN([C@H](C)CO)C(=O)CCCn2cc(nn2)CO[C@@H]1CN(C)Cc1ccccc1	57
